AmpC nodet inh = Promiscuous and Specific Inhibitors of AmpC Beta-Lactamase (assay without detergent); P00811; AmpC nitrocefin hydrolysis, absorbance 480 nm, no detergent; potencies from a single point are estimates; Potency, µM (top dose mostly 28.7 µM), inactives show at the top dose activity change, negative = inhibition; 71,000 compounds, 1.8% hits; AID 585, 2007; active = falling curve, for most hits resting on a single point; inconclusive = weak or doubtful change; inactive = flat or rising curve; further: % of control where 0% means no effect; about half of the hits show no inhibition at the top dose; a quarter of the inactives give rising signals
Target sequence (P00811 whole entry, looked up): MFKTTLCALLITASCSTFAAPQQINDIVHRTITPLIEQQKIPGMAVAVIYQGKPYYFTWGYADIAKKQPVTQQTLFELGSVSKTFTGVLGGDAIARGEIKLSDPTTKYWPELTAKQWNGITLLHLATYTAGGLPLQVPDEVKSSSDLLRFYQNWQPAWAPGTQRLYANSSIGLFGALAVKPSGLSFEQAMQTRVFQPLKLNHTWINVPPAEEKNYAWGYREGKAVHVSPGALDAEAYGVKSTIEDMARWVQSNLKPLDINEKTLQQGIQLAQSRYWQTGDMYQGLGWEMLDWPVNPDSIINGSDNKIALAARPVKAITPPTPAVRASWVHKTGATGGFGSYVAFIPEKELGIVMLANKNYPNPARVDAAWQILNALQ
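AmpC, 20 mM phosphate pH 7.0; 15 min cpd preinc, RT; start with nitrocefin (800 uM stock); A480 kinetic read, 20 s intervals, 4 min. No-enzyme wells = negative control.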
An asterisk follows results filed as active; ? = inconclusive; & = joins results of further samples; [ ] = another dose, or the depositor's remark. Potency means the concentration at half of the fitted maximal effect. The list is partial (hit frequency here may not be typical).

SMILES	AmpC nodet inh
Fc1ccccc1Cn1nnc2c(NCc3ccccn3)ncnc21	23.9%
Cc1cc(NC(=O)c2cc(Cl)ccc2Cl)no1	-13.4%
Cc1ccc(CC2C(=O)N(c3ncccn3)C(=O)C2C)cc1 (centres undefined)	26.7%
Cc1ccc(-c2nnc(SC(C)C#N)n2N)cc1 (centres undefined)	-2.3%
Cc1cc(C)n(-c2nc(C)nc3c2cnn3-c2ccccc2)n1	6.7%
COc1ccccc1NC(=O)C1=C(C)NC(=O)NC1c1ccc(C)cc1 (centres undefined)	6.3%
CC1CC(C)(C)CC2(C1)NC(=O)N(CC(=O)NCC(c1ccco1)N1CCCCC1)C2=O (centres undefined)	84.0%
CCOC(=O)CN(C(=O)CNC(=O)c1ccco1)C(C(=O)NC1CCCCC1)c1cccc(OC)c1 (centres undefined)	44.9%
CCCCC(=O)Nc1ccc(C(=O)Nc2ccc3c(c2)OCO3)cc1	5.1%
O=C(CCS(=O)(=O)c1ccc(Br)s1)NCc1cccs1	-9.7%
O=C(CCn1cccc1)NCc1ccc(Cl)cc1	16.2%
CCCCN(CCCC)C(=O)CCS(=O)(=O)c1ccc2c(c1)n(C)c(=O)c(=O)n2C	22.3%
Cn1cc(C(=O)NC2CCCCC2)c(=O)c2cc(S(=O)(=O)N3CCCC3)ccc21	112.0%
Nc1nc2c(c(=O)[nH]1)N(C=O)[C@H](CNc1ccc(C(=O)N[C@@H](CCC(=O)O)C(=O)O)cc1)CN2	0.3%[12.8 µM]
Cc1ccc(-n2ncc3c(NCC4CCCO4)ncnc32)c(C)c1 (centres undefined)	20.3%
Cc1nnc(Sc2nc3ccccc3o2)c2ccccc12	12.1%
CCc1nc(SCC(=O)N2CCCc3ccccc32)c2c(=O)n(C)c(=O)n(C)c2n1	-7.8%
Cc1[nH]c2ccccc2c(=O)c1CN(C)Cc1ccccc1	-13.1%
CC(=O)SCC[N+](C)(C)C	-9.6%
COc1ccc(C2/C(=C(/O)c3ccccc3)C(=O)C(=O)N2CC(C)O)c(OC)c1 (centres undefined)	-3.4%
O=C1NC(=O)c2cc([N+](=O)[O-])ccc21	-0.7%
COc1cc(CN/C(C)=C(\C#N)C(N)=O)cc(OC)c1OC	3.2%
Cc1cccn2c(=O)c3cc(C(=O)N4CCCc5ccccc54)n(C)c3nc12	14.9%
CCCCNC(=O)COC(=O)c1cc2c(C)nn(-c3ccccc3)c2s1	8.7%
O=C(Cn1c(=O)oc2ccccc21)N(Cc1ccccc1)C1CCS(=O)(=O)C1 (centres undefined)	9.1%

A draw from above in order of formula weight, descending:
SMILES	AmpC nodet inh
Nc1nc2c(c(=O)[nH]1)N(C=O)[C@H](CNc1ccc(C(=O)N[C@@H](CCC(=O)O)C(=O)O)cc1)CN2	0.3%[12.8 µM]
CCc1nc(SCC(=O)N2CCCc3ccccc32)c2c(=O)n(C)c(=O)n(C)c2n1	-7.8%
Cn1cc(C(=O)NC2CCCCC2)c(=O)c2cc(S(=O)(=O)N3CCCC3)ccc21	112.0%
O=C(Cn1c(=O)oc2ccccc21)N(Cc1ccccc1)C1CCS(=O)(=O)C1 (centres undefined)	9.1%
O=C(CCS(=O)(=O)c1ccc(Br)s1)NCc1cccs1	-9.7%
Cc1ccc(-n2ncc3c(NCC4CCCO4)ncnc32)c(C)c1 (centres undefined)	20.3%

Remaining list, next part
SMILES	AmpC nodet inh
CCNc1nc2c(c(=O)n(Cc3ccccc3)c(=O)n2C)n1Cc1ccccc1	62.6%
Cc1occc1-c1nnc(SCC(=O)c2c(N)n(Cc3ccccc3)c(=O)n(C)c2=O)n1C	14.1%
Cc1ccc(OCC2Cn3c(nc4c3c(=O)n(C)c(=O)n4C)O2)cc1 (centres undefined)	93.3%
COc1ccc(OC)c(-c2cc(C(=O)O)c3cc4ccccc4cc3n2)c1	-3.1%[5.75 µM]
COc1ccc(Oc2ncc3nc(CCc4ccccc4)c(=O)n(C[C@H]4CCCO4)c3n2)cc1	62.7%
Cc1ccc(C)c(N2CCN(C(=O)CCCOc3cc(=O)n(C)c4ccccc34)CC2)c1	182.2%
COC(=O)Cc1nc2ccccc2[nH]1	1.5%
CC(C)c1ccc(NC(=O)C2C3C=CC4(CN(CCCN5CCOCC5)C(=O)C24)O3)cc1 (centres undefined)	-14.8%
NC(=O)C1CCN(c2nc(-c3ccccc3)nc3ccccc23)CC1	37.5%
O=C(NCc1ccccn1)C1CCCN(Cc2cnn(-c3ccccc3)c2-n2cccc2)C1 (centres undefined)	101.4%
O=C(O)CC1NC(=O)N(c2ccc(Cl)cc2)C1=O (centres undefined)	-1.5%
O=C(O)C1CCCCC1C(=O)NCCc1ccc(Cl)cc1 (centres undefined)	10.4%
O=C(Nc1ccncc1)c1cncc(Br)c1	2.4%
COc1ccc(-c2nc(CSCC(=O)N3CCC4(CC3)OCCO4)c(C)o2)cc1OC	74.3%
CCCCNc1ncnc2c1cnn2-c1ccc(C)cc1C	13.8%
Brc1ccc(Nc2c3c(nc4ncnn24)CCC3)cc1	33.8%
COCCCNC(=O)Cn1nnc(-c2ccccc2NC(=O)c2ccccc2F)n1	21.3%
S=c1[nH]nc(-c2ccco2)n1-c1cccc2ccccc12	-13.3%
CCC(CO)NCc1ccc2c(c1)n(C)c(=O)n2C (centres undefined)	5.4%
CC1CCN(S(=O)(=O)N2CCC(C(=O)NCc3cccs3)CC2)CC1	22.6%
COc1ccc(-c2cc(C(F)(F)F)n3nc(C(=O)N4CCOCC4)nc3n2)cc1	29.2%
C=CCOc1ccccc1C1C2=C(CC(C)(C)CC2=O)Nc2c1c(=O)n(C)c(=O)n2C (centres undefined)	6.7%
CCN(CC)c1ccc2c(c1)oc(=O)c1c(Cl)cc(=O)oc12	-7.0%
CCc1nnc(NC(=O)CSc2nc3cccnc3n2C2CCCCC2)s1	83.3%
Cc1ccc(N2CCN(C(=O)C3CCN(S(=O)(=O)c4cccc5nsnc45)CC3)CC2C)cc1 (centres undefined)	76.4%
(more compounds)
SMILES	AmpC nodet inh
CC[C@@](O)(C(=O)O)c1cc2n(c(=O)c1CO)Cc1cc3ccccc3nc1-2	8.1%[5.75 µM]
O=c1ccsn1Cc1ccccc1	-8.8%
O=C(CSc1nc2ccccc2[nH]1)Nc1ccc2c(c1)OCCO2	-9.3%
O=C1OCCC1Sc1nc(-c2ccccc2)cs1 (centres undefined)	2.4%
Cc1ccc(C(N)=O)cc1S(=O)(=O)Nc1cccc(C)c1C	-15.8%
Cc1cccc(C)c1NC(=O)CNc1ccccc1	13.0%
CCN(C(=O)COC(=O)c1cc(C)n(-c2ccc(F)cc2)c1C)C1CCS(=O)(=O)C1 (centres undefined)	121.3%
CCOc1ccc(C(C)=O)cc1N1C(=O)C2C3C=CC(C3=C(C)C)C2C1=O (centres undefined)	57.2%
Cc1ccc(OCC(=O)Nc2ccc(S(=O)(=O)Nc3onc(C)c3C)cc2)cc1	2.3%
Cc1ccc(-c2c3c(=O)n(C)c(=O)n(C)c3cn2N2CCOCC2)cc1	45.0%
CC1CC(C)CN(CCC(=O)Nc2cccc(Cl)c2)C1 (centres undefined)	-6.1%
CCn1c(SCC(=O)Nc2cc3oc4ccccc4c3cc2OC)nnc1-c1cccs1	43.2%
CC(=O)NC(CCS(C)(=O)=O)C(=O)Nc1ccc(C)c(F)c1 (centres undefined)	-12.9%
CCc1ccc(N2CSC3=C(C#N)C(c4cccs4)CC(=O)N3C2)cc1 (centres undefined)	-13.0%
O=C(O)C1C2C=CC(C2)C1C(=O)OC1CC2CCC1C2 (centres undefined)	11.9%
COC(=O)CSc1nc2ncc(Cl)cc2[nH]1	-3.9%
Cc1cnc(CNc2ncncc2-c2ccccc2C#N)cn1	-13.4%
CC1(C)S[C@@H]2[C@H](NC(=O)C3(N)CCCCC3)C(=O)N2[C@H]1C(=O)O	0.00631µM*
CN1CCN(CCCNC(=O)C2CCN(c3nnc(-n4cccc4)s3)CC2)CC1	30.0%
Nc1ccc2c(c1)C(=O)N(CCCC(=O)O)C2=O	-3.5%
CCOc1cc(C)c(C(C)C)cc1S(=O)(=O)N1CCOCC1	56.9%
CN(C)CCNC(=O)c1ccc2c(c1)N(Cc1ccc(F)cc1)CCS2	84.4%
COc1ccc2cc3cc(C(=O)Nc4ccc5c(c4)OCCO5)oc3nc2c1	47.8%
Cc1cc(C)c(C)c(S(=O)(=O)NCC(=O)N2CCCC2)c1C	20.4%
COC(=O)/C=c1/s/c(=C(\C#N)C(=O)NCc2ccco2)n(-c2ccc(C)cc2)c1=O	-5.2%
The listing continues:
SMILES	AmpC nodet inh
COC(=O)C1=C(C)NC(C)=C(C(=O)OC)C1c1ccccc1[N+](=O)[O-]	71.4%
COC(=O)c1c(-c2cccc(OC)c2)csc1N	6.8%
CS(=O)(=O)N1CCN(C(=O)c2ccccc2F)CC1	6.4%
COc1ccccc1CNC(=O)CN1CCN(Cc2ccc(Cl)cc2)C1=O	64.9%
CC(=O)NCCn1c(SCC#N)nc2ccccc2c1=O	6.1%
O=C(/N=C1\NC(=O)C(F)(C(F)(F)F)S1)NC1CCCCC1 (centres undefined)	-9.5%
COC(=O)c1c(NC(=O)CSc2nnnn2-c2ccccc2)sc2c1CCC(C)C2 (centres undefined)	?
CCC1(C)Cc2c(sc3nc4n(c(=O)c23)CCCS4)CO1 (centres undefined)	25.0%
CCN(Cc1ccccc1)C(=O)c1ccccc1C	16.5%
Cc1ccn(CC(=O)O)c(=O)c1	1.6%
CSc1nnc2c(n1)OC(c1cn(C)c3ccccc13)N(C(C)=O)c1ccccc1-2 (centres undefined)	-9.4%
Cc1ccnc(NS(=O)(=O)c2cccc3nsnc23)c1	18.7%
Cc1ccc2cc(C)c(NCCO)nc2c1	1.1%
Cc1ccc(O)c(C)c1	4.0%
O=S(=O)(c1cccc(Cl)c1Cl)N1CCCCC1	-2.0%
O=C1c2ccccc2C(Nc2ccc(S(=O)(=O)N3CCOCC3)cc2)N1c1cccnc1 (centres undefined)	3.98µM*[single pt active]
CCCCSc1nnc([C@H](C)NC(=O)OC(C)(C)C)o1	25.8%
COc1cc(NC(=O)CN(c2ccc(C)cc2)S(=O)(=O)c2c(C)nn(C)c2C)cc(OC)c1	109.0%
O=C1CS/C(=C\S(=O)(=O)c2ccc(Cl)cc2)N1	-13.5%
COCc1nc2c([nH]1)c(=O)n(C)c(=O)n2CC(C)C	9.2%&1.6%
COC(=O)c1cc2ccsc2n1Cc1nc(-c2ccc(OC)cc2)oc1C	33.8%
CCN(CC)C(=O)CN(c1cc(Cl)ccc1OC)S(C)(=O)=O	7.6%
C=CCn1c(O)c(C(C)=NC2CC2)c(=O)[nH]c1=O	-5.0%
CCN1CCN(C(=O)c2nn(-c3ccc(C)cc3)c(=O)c3c2c2ccccc2n3C)CC1	31.3%
CN(Cc1ccco1)c1cc(-c2ccoc2)ncn1	17.8%

The last 2 records of the part above lead into the next:
SMILES	AmpC nodet inh
CCN1CCN(C(=O)c2nn(-c3ccc(C)cc3)c(=O)c3c2c2ccccc2n3C)CC1	31.3%
CN(Cc1ccco1)c1cc(-c2ccoc2)ncn1	17.8%
CCCOc1ccc2[nH]cc(C(=O)O)c(=O)c2c1	0.3%
Cc1nn2c(CN(C(=O)c3ccco3)c3ccccc3)nnc2c2ccccc12	61.4%
Cc1ccc(C)c(NC(=O)c2nnn(Cc3ccccc3)c2N)c1	-11.9%
COc1cccc(C2c3c(oc4ccccc4c3=O)C(=O)N2CCCN2CCOCC2)c1OC (centres undefined)	54.6%
Nc1nnc(CC(=O)N2CCCCC2)s1	2.4%
CCC1Oc2ccc(C)cc2N(CC(=O)NCCN2C(C)CCCC2C)C1=O (centres undefined)	17.0%
CC(C)n1cc(/C=C(\C#N)S(=O)(=O)c2ccccc2)c2ccccc21	5.8%
CCOC(=O)c1[nH]c(C)c(C(=O)NCc2ccccn2)c1C	-5.9%
COc1ccc(CC(C(=O)Nc2cccc(F)c2)c2nn[nH]n2)c(OC)c1 (centres undefined)	?
Fc1ccc(-c2cc3nc(-c4ccccc4)cc(N4CCN(CCN5CCOCC5)CC4)n3n2)cc1	144.5%
COc1cccc(C2c3c(oc4ccccc4c3=O)C(=O)N2CCCN(C)C)c1OC (centres undefined)	9.6%
O=C(CCNS(=O)(=O)c1ccc2c(c1)CCC(=O)N2)NCc1cccnc1	-10.0%
Cn1c(Cn2c(=O)sc3ccccc32)nnc1SCC(=O)Nc1ccc2c(c1)OCO2	-9.1%
CCN(CC)S(=O)(=O)c1cccc(C(=O)Nc2ccc(C#N)cc2)c1	2.1%
Cc1cc(-c2nc3ccccc3o2)c2ccccc2n1	?
Cc1ccc(C(=O)Cn2c(N3CCOCC3)nc3c2c(=O)n(C)c(=O)n3C)cc1	47.7%
COc1cccc(NC(=O)COc2ccccc2C(N)=O)c1	-7.5%
CCOC(=O)c1[nH]c2ccc(OC)cc2c1NC(=O)CN1CCC2(CC1)OCCO2	19.4%
Cc1ccnc(NC(=O)COC(=O)C2COc3ccccc3O2)n1 (centres undefined)	-8.6%
OC(Cc1ccccc1)(Cc1ccccc1)c1ccccc1	-1.6%[5.75 µM]
CCC(c1nc2ccccc2c(=O)n1CCCn1ccnc1)N1C(=O)c2ccccc2C1=O (centres undefined)	94.7%
CCC(=O)N1CCc2cc(S(=O)(=O)CCC(=O)Nc3ccc(F)c(F)c3)ccc21	12.8%

Part of the list above, set out differently.
O=C(CCNS(=O)(=O)c1ccc2c(c1)CCC(=O)N2)NCc1cccnc1
- AmpC nodet inh = -10.0%

Cn1c(Cn2c(=O)sc3ccccc32)nnc1SCC(=O)Nc1ccc2c(c1)OCO2
- AmpC nodet inh = -9.1%

CCN(CC)S(=O)(=O)c1cccc(C(=O)Nc2ccc(C#N)cc2)c1
- AmpC nodet inh = 2.1%

Screening data as filed in PubChem BioAssay.
